Env fusion inh: blocks HIV Env-driven cell-cell fusion; 360,000 tested, 1.1% active; inhibition, % at 12.3 µM; HeLa-JRFL Env/CEM21 cell fusion, luciferase; AID 651610;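 active = mean replicate inhibition score of at least 50 and every replicate individually at or above 50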;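 also: 0% = plate neutral controls and 100% = maraviroc near 300 nM; one replicate is shown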
CSC inhib: blocks cancer stem cells. AID 2717. 300,000 tested, 1.1% active. inhibition, % at 7.5 µM. cancer stem cell-like cells viability, luminescence;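 active = mean at 75% or more and at least half the replicates too; tested in HMLE shEcad cells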;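 also: 0% = median of negative and 100% = median of positive control wells; the first replicate is given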
Yeast UUG start: modulators of start codon recognition fidelity in yeast | S. cerevisiae UUG-firefly luciferase reporter, luminescence/redox ratio | activity score, % at 18.7 µM | 350,000 tested, 0.13% active;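 active = replicate mean at a twofold rise or more, about +100% in these data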;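 also: firefly luciferase made from a UUG start codon reports start codon fidelity; reporter light over untreated wells divided by growth signal over untreated wells; some hits fall short of that in this replicate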
eIF4H inh: inhibitors of RNA binding by human eIF4H | Q15056 | eIF4H fluorescence polarization binding assay | inhibition, % at 35 µM | 290,000 tested, 0.94% active;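 active = 50% or more with normal probe brightness, or confirmed in later tests; about a fifth of its hits are not listed in these tables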;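 also: calls also rest on retests at 20 µM and on dose response follow-up; 0% = protein and probe with vehicle and 100% = probe without protein; strong numbers were not always called active; many hits fall short of the cut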
Rce1 inhib: blocks yeast Ras-converting enzyme; Q03530; yeast membranes, quenched prenylated peptide cleavage fluorescence; calls only; 290,000 tested, 0.27% active; AID 2563;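 active = fall in fluorescence gain of 50% or more versus controls, with final raw signal at or below 3038400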;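 also: plate controls were neutral control wells for no effect and wells lacking membranes for full effect; tested at 10 µM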
Target sequence (Q03530 whole entry, looked up): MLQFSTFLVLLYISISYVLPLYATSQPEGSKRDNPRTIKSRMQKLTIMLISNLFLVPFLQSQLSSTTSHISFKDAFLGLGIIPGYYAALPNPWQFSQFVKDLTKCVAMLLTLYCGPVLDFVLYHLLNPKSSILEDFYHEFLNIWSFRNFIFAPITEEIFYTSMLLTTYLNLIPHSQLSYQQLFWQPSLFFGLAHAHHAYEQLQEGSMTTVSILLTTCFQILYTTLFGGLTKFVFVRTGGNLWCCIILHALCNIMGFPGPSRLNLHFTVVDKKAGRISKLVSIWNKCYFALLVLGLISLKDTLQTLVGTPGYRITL
PABP polyA inh: PABP-poly(A) binding inhibition; P11940; inhibition, % at 35 µM; PABP-poly(A) RNA binding, fluorescence polarization; 290,000 tested, 1% active;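 active = 50% or more with normal probe brightness, or confirmed in later tests; about a fifth of its hits are not listed in these tables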;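 also: calls also rest on retests at 20 µM and on dose response follow-up; controls were probe without protein and protein plus probe with vehicle; some compounds called inactive have numbers as strong as hits; many hits fall short of the cut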
Target sequence (P11940 whole entry, looked up): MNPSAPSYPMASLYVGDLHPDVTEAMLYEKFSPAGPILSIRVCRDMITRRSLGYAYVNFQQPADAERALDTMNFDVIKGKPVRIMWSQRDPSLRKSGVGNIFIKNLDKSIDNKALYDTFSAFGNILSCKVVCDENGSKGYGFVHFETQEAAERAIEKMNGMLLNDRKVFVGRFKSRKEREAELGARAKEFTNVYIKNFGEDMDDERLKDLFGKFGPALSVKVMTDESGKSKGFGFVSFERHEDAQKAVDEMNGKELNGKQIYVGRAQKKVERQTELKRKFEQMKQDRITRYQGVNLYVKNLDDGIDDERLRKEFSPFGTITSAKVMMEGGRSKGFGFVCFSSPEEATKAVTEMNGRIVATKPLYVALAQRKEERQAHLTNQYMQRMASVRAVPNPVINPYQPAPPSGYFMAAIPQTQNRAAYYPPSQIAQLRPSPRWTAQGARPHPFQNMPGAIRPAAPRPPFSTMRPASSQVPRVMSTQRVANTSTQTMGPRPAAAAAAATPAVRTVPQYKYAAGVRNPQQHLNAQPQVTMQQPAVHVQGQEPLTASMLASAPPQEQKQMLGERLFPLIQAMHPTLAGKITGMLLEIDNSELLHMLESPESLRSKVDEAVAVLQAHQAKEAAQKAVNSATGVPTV
MT1-MMP act inh: MT1-MMP (human) activation inhibition. P50281. GFP/RFP ratio change, % at 20 µM. HT1080 RFP-PRO-GFP cells, GFP/RFP ratio fluorescence, overnight; percent of plate control window, DMSO zero. 360,000 tested, 0.061% active;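 active = GFP/RFP ratio change of at least 30% with cell ATP level not reduced by more than half and red fluorescence within 50% of control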; also: strong numbers were not always called active
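Assay system – RFP-PRO-GFP reporter HT1080 cells · Compound dosing – single dose of 20 µM compound, 1% DMSO final · Incubation – overnight compound exposure at 37 °C · Measure – GFP/RFP fluorescence ratio · Benchmarks – DMSO wells and RFP-L50D-GFP cells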
eIF4H inh retest: second read-out of eIF4H inh, no call of its own (marks repeat the call); inhibition, %; compound at 20 µM; confirmation average;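 mean of two retest wells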
PABP polyA inh retest: second read-out of PABP polyA inh, no call of its own (marks repeat the call); inhibition, %; compound at 20 µM; confirmation repeats;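 mean of two retest wells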
MT1-MMP act inh RFP: also measured in MT1-MMP act inh; calls as there; RFP signal change, %; measured here: RFP expression control read;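 0 = vehicle wells; hits needed this value within 50% of zero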
Numbers without * were called inactive.

Screening COc1ccccc1CNC(=O)CCNS(=O)(=O)c1cc(Br)cnc1N returned Env fusion inh 0, CSC inhib 3, Yeast UUG start 0, Rce1 inhib inactive, MT1-MMP act inh -4 and MT1-MMP act inh RFP -1.
Screening COc1ccc(CCNC(=O)c2cnc3n(c2=O)CCS3)cc1OC returned Env fusion inh -18, CSC inhib -10, Yeast UUG start -5, eIF4H inh -4, Rce1 inhib inactive, PABP polyA inh 10, MT1-MMP act inh 0 and MT1-MMP act inh RFP 0.
For CCNC(=O)C1(C)CCCN(Cc2csc3ccccc23)C1 (stereo unspecified) the results were Env fusion inh -38, Yeast UUG start -14, MT1-MMP act inh -3 and MT1-MMP act inh RFP 5.
`Cc1nn(-c2ccccc2)c(Cl)c1C(=O)Nc1ccc(N2CCOCC2)cc1` gave Env fusion inh 4, CSC inhib -8, eIF4H inh 4, Rce1 inhib inactive, PABP polyA inh 6, MT1-MMP act inh 0 and MT1-MMP act inh RFP 2.
For COc1ccc(-n2ncc(C(C)NS(=O)(=O)c3ccc(C(C)=O)cc3)c2C)cc1 (stereo unspecified) the results were Env fusion inh -11, CSC inhib -7, Yeast UUG start -16, eIF4H inh 16, Rce1 inhib inactive, PABP polyA inh 3, MT1-MMP act inh 3 and MT1-MMP act inh RFP 5.
`CN1/C(=C/C(=S)NC(=O)C2(C)CC2(Cl)Cl)C(C)(C)c2ccccc21` (stereo unspecified) gave Env fusion inh -4, CSC inhib 9, Yeast UUG start -27, eIF4H inh 10, Rce1 inhib inactive, PABP polyA inh -21, MT1-MMP act inh 21 and MT1-MMP act inh RFP -2.
For Cc1ccc2[nH]c(=O)c(CN(CCN3CCOCC3)C(=O)Nc3ccc(F)cc3)cc2c1 the results were CSC inhib -6, Yeast UUG start -8, eIF4H inh 9, Rce1 inhib inactive, PABP polyA inh -5, MT1-MMP act inh 4 and MT1-MMP act inh RFP -1.
For CCOc1cc(/C=N/Nc2cccc(C(=O)O)c2)ccc1OC(=O)c1ccccc1 the results were Env fusion inh 65*, eIF4H inh 9, Rce1 inhib inactive, PABP polyA inh 6, MT1-MMP act inh -1 and MT1-MMP act inh RFP 0.
`O=C(/C=C/c1ccccc1)NCC1(c2ccccc2)CCOCC1` gave Env fusion inh -10, CSC inhib -9, Yeast UUG start -1, eIF4H inh 14, Rce1 inhib inactive, PABP polyA inh 5, MT1-MMP act inh 4 and MT1-MMP act inh RFP 2.
`Cc1ccc(Cn2ccc(NC(=O)c3cc(-c4ccccc4)on3)n2)cc1` gave CSC inhib 3, Yeast UUG start -8, eIF4H inh 2, PABP polyA inh -5, MT1-MMP act inh 1 and MT1-MMP act inh RFP -3.
Screening COc1ccc(CCNC(=O)c2ccc3c(c2)S(=O)(=O)N=C2CCCCCN23)cc1 returned Env fusion inh -8, CSC inhib -1, Yeast UUG start -2, Rce1 inhib inactive, MT1-MMP act inh 6 and MT1-MMP act inh RFP 6.
For CCOC(=O)c1sc(NC(=O)c2ccccc2C(=O)O)c(C(=O)OCC)c1C the results were Env fusion inh -18, CSC inhib -1, eIF4H inh -6, Rce1 inhib inactive, PABP polyA inh 7, MT1-MMP act inh -2 and MT1-MMP act inh RFP 2.
`C/C(=N\NC(=O)c1ccccc1OCCOc1ccccc1)c1ccccc1F` gave Env fusion inh -2, Yeast UUG start -10, MT1-MMP act inh -2 and MT1-MMP act inh RFP -4.
For CCCCn1c(-c2cccs2)nc2nc3ccccc3nc21 the results were Env fusion inh -114, CSC inhib 51, Yeast UUG start 0, eIF4H inh -14, Rce1 inhib inactive, PABP polyA inh -3, MT1-MMP act inh -7 and MT1-MMP act inh RFP -7.
For S=c1[nH]nc(-c2ccccc2Cl)n1/N=C/C=C/c1ccco1 the results were Env fusion inh 2, CSC inhib -11, Yeast UUG start -16, eIF4H inh 92*, Rce1 inhib inactive, PABP polyA inh 49*, MT1-MMP act inh -5, eIF4H inh retest 90*, PABP polyA inh retest 72* and MT1-MMP act inh RFP -2.

Fetched by structure from the list above:
For S=c1[nH]nc(-c2ccccc2Cl)n1/N=C/C=C/c1ccco1 the results were Env fusion inh 2, CSC inhib -11, Yeast UUG start -16, eIF4H inh 92*, Rce1 inhib inactive, PABP polyA inh 49*, MT1-MMP act inh -5, eIF4H inh retest 90*, PABP polyA inh retest 72* and MT1-MMP act inh RFP -2.
For CCOc1cc(/C=N/Nc2cccc(C(=O)O)c2)ccc1OC(=O)c1ccccc1 the results were Env fusion inh 65*, eIF4H inh 9, Rce1 inhib inactive, PABP polyA inh 6, MT1-MMP act inh -1 and MT1-MMP act inh RFP 0.
For CCOC(=O)c1sc(NC(=O)c2ccccc2C(=O)O)c(C(=O)OCC)c1C the results were Env fusion inh -18, CSC inhib -1, eIF4H inh -6, Rce1 inhib inactive, PABP polyA inh 7, MT1-MMP act inh -2 and MT1-MMP act inh RFP 2.
For COc1ccc(-n2ncc(C(C)NS(=O)(=O)c3ccc(C(C)=O)cc3)c2C)cc1 (stereo unspecified) the results were Env fusion inh -11, CSC inhib -7, Yeast UUG start -16, eIF4H inh 16, Rce1 inhib inactive, PABP polyA inh 3, MT1-MMP act inh 3 and MT1-MMP act inh RFP 5.

Next part
Screening COc1ccc(CCNC(=O)CN2C(=O)c3ccccc3S2(=O)=O)cc1OC returned CSC inhib -3, Yeast UUG start -12, eIF4H inh -2, Rce1 inhib inactive, PABP polyA inh 0, MT1-MMP act inh 2 and MT1-MMP act inh RFP 1.
For Cc1ccc(CN2CCN(CC(=O)N3CCC(C(N)=O)CC3)C2=O)cc1 the results were Env fusion inh -11, Yeast UUG start -2, Rce1 inhib inactive, MT1-MMP act inh 1 and MT1-MMP act inh RFP 2.
Screening O=C(Nc1cccc(Cl)c1)OCCOC(=O)Nc1cccc(Cl)c1 returned Env fusion inh -30, Yeast UUG start -7, MT1-MMP act inh 5 and MT1-MMP act inh RFP 0.
Screening COc1ccc(CNC(=O)COc2ccc(S(=O)(=O)N3CCCCC3)cc2)cc1 returned Env fusion inh -5, CSC inhib 4, Yeast UUG start -13, eIF4H inh -8, Rce1 inhib inactive, PABP polyA inh 5, MT1-MMP act inh 0 and MT1-MMP act inh RFP -2.
Screening O=C(N/N=C/c1ccc(Cl)c([N+](=O)[O-])c1)c1cc(-c2ccc3c4c(cccc24)CC3)n[nH]1 returned Env fusion inh -35, CSC inhib 136*, Yeast UUG start 2, eIF4H inh 6, Rce1 inhib inactive, PABP polyA inh -7, MT1-MMP act inh -12 and MT1-MMP act inh RFP -19.
`CC1CN(c2nc3c(c(=O)n(Cc4ccc(Cl)c(Cl)c4)c(=O)n3C)n2C)CC(C)O1` (stereo unspecified) gave Env fusion inh 7, CSC inhib -3, Yeast UUG start 0, eIF4H inh 0, Rce1 inhib inactive, PABP polyA inh -4, MT1-MMP act inh 0 and MT1-MMP act inh RFP -8.
For Nc1ncnc2c1ncn2[C@@H]1O[C@H](C(=O)N2CCCN(Cc3cccs3)CC2)[C@@H](O)[C@H]1O the results were Env fusion inh 7, Yeast UUG start -15, MT1-MMP act inh 1 and MT1-MMP act inh RFP 5.
`CCCOc1ccc(N/C=C/C(=O)c2ccc(OC)c(OC)c2)cc1` gave Env fusion inh 4, CSC inhib -3, Yeast UUG start -6, eIF4H inh 2, PABP polyA inh 13, MT1-MMP act inh -6 and MT1-MMP act inh RFP -1.
Screening O=C(N/N=C/c1ccco1)c1ccccc1OCc1ccccc1Cl returned Env fusion inh 15, CSC inhib 3, Yeast UUG start -23, eIF4H inh 80, Rce1 inhib inactive, PABP polyA inh 4, MT1-MMP act inh 3, eIF4H inh retest -1, PABP polyA inh retest 27 and MT1-MMP act inh RFP -2.
`CC1CN(C(=O)CCC(=O)NC(C)c2ccccc2)c2cc(Cl)ccc2O1` (stereo unspecified) gave Env fusion inh -21, CSC inhib -12, Yeast UUG start 10, eIF4H inh -8, Rce1 inhib inactive, PABP polyA inh -10, MT1-MMP act inh -3 and MT1-MMP act inh RFP 3.
`CC1(C)CC2CC(C)(CN2S(=O)(=O)c2cccc(C(=O)OCC(=O)NC(N)=O)c2)C1` (stereo unspecified) gave Env fusion inh 91*, CSC inhib -7, Yeast UUG start -8, Rce1 inhib inactive, MT1-MMP act inh -3 and MT1-MMP act inh RFP -1.
For Nc1nc(-c2ccc(Br)cc2)cs1 the results were Env fusion inh -125, CSC inhib 14, Yeast UUG start -24, eIF4H inh -9, Rce1 inhib inactive, PABP polyA inh 15, MT1-MMP act inh 7 and MT1-MMP act inh RFP 1.
COc1ccc(C(C)(C)C)cc1NC(=O)COC(=O)CSCc1c(C)noc1C was read as Env fusion inh -1, Yeast UUG start 19, MT1-MMP act inh -1 and MT1-MMP act inh RFP 4.
For CC(C)(C)C1CCC(=NNC(=O)c2ccccc2-n2cccc2)CC1 (stereo unspecified) the results were Env fusion inh -20, CSC inhib -2, eIF4H inh -5, Rce1 inhib inactive, PABP polyA inh -7, MT1-MMP act inh 7 and MT1-MMP act inh RFP 4.
O=c1c2ccccc2c(=O)n2n1Cc1ccccc1C2 was read as Env fusion inh -21, CSC inhib -10, Yeast UUG start -9, eIF4H inh 3, Rce1 inhib inactive, PABP polyA inh 3, MT1-MMP act inh -2 and MT1-MMP act inh RFP 2.
`COC(=O)C1=C(C(=O)OC)[C@@H]2Nc3ccccc3[C@@]23C[C@@H](C(=O)OC)N(C(C)=O)C3=N1` gave Env fusion inh 3, CSC inhib -9, Yeast UUG start -11, eIF4H inh -6, Rce1 inhib inactive, PABP polyA inh -2, MT1-MMP act inh -2 and MT1-MMP act inh RFP -1.
Cc1c(/C=N/NC(N)=O)c2ccccn2c1C(=O)c1ccncc1 was read as Env fusion inh -21, CSC inhib -9, Yeast UUG start -15, eIF4H inh -13, Rce1 inhib inactive, PABP polyA inh 8, MT1-MMP act inh 14 and MT1-MMP act inh RFP 2.
`CCOC(=O)N1CCN(S(=O)(=O)N2CCCC(C(=O)NC(C)c3ccccc3)C2)CC1` (stereo unspecified) gave Env fusion inh 4, CSC inhib -9, Yeast UUG start -21, eIF4H inh 3, Rce1 inhib inactive, PABP polyA inh -4, MT1-MMP act inh 0 and MT1-MMP act inh RFP 0.
`CN(c1ccccc1)S(=O)(=O)c1cccc(NC(=O)Nc2ccc(Cl)cc2C#N)c1` gave Env fusion inh -52, CSC inhib 0, eIF4H inh 1, Rce1 inhib inactive, PABP polyA inh -19, MT1-MMP act inh -1 and MT1-MMP act inh RFP 1.
Screening COc1ccc(C(=O)CCC(=O)Nc2cccnc2)cc1 returned Env fusion inh -5, CSC inhib -4, eIF4H inh 2, Rce1 inhib inactive, PABP polyA inh -8, MT1-MMP act inh 0 and MT1-MMP act inh RFP 4.
`CC(=O)N(c1cccc(Br)c1)c1nc(C)cc(C)c1C#N` gave Env fusion inh -30, CSC inhib -7, Yeast UUG start -13, eIF4H inh -2, Rce1 inhib inactive, PABP polyA inh -13, MT1-MMP act inh -1 and MT1-MMP act inh RFP 4.
Cn1c(SCC(=O)NCCc2ccccc2)nc2c([nH]c3ccccc32)c1=O was read as Env fusion inh 31, CSC inhib -2, eIF4H inh -8, Rce1 inhib inactive, PABP polyA inh -5, MT1-MMP act inh 2 and MT1-MMP act inh RFP 4.
Screening CCOC(=O)C1=C(COC(=O)c2cc(Br)c(Br)s2)NC(=O)NC1C (stereo unspecified) returned Env fusion inh 17, CSC inhib -5, Yeast UUG start 7, Rce1 inhib inactive, MT1-MMP act inh 3 and MT1-MMP act inh RFP 1.
For O=C(Cn1cnc2ccccc2c1=O)Nc1cccc(-c2nnc3n2CCCCC3)c1 the results were eIF4H inh -1, Rce1 inhib inactive, PABP polyA inh -8, MT1-MMP act inh 4 and MT1-MMP act inh RFP 4.
NNC(=O)/C=C/c1ccc(Cl)cc1Cl was read as Env fusion inh -33, CSC inhib -9, eIF4H inh -3, Rce1 inhib inactive, PABP polyA inh 16, MT1-MMP act inh 7 and MT1-MMP act inh RFP -1.
